D2 PAM: Beta-Arrestin HTS for Positive Allosteric Modulators of the Human D2 Dopamine Receptor: Potentiators. potentiation, % (test concentration not listed). 0.23% of 360,000 active. DiscoveRx D2 beta-arrestin cells, luminescence, 90 min; 100% = 57 uM dopamine signal. AID 624464, 2012. D(2) dopamine receptor (Homo sapiens), P14416; active = potentiation of 50% or more; inconclusive = 30% to 50%; inactive = 30% or less;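 note: compound concentration not given in the record; tested on top of an EC20 dose of dopamine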
Target sequence (P14416 whole entry, looked up): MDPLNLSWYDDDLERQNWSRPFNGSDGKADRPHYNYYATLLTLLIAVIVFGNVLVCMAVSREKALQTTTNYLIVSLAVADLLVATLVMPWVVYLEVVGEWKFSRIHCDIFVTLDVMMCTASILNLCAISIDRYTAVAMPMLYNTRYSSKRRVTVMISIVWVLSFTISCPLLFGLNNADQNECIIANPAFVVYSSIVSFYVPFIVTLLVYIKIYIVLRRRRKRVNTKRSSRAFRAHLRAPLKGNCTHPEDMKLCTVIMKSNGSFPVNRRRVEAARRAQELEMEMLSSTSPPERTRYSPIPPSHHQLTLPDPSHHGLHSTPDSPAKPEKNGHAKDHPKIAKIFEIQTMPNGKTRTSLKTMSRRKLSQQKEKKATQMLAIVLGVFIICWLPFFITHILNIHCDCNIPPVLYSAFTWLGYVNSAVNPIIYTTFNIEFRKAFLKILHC
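D2 cells co-treated with compound plus 50 nM dopamine (EC20) for 90 min at 37 deg C to detect potentiation. Beta-arrestin recruitment was read as enzyme-fragment luminescence after 1 h at ambient temperature. Full response was set by 57 uM dopamine.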
Sfp PPTase inh: qHTS Assay for Inhibitors of Bacillus subtilis Sfp phosphopantetheinyl transferase (PPTase); 4'-phosphopantetheinyl transferase ffp (Bacillus subtilis), Q9F4F7; Biochemical Sfp PPTase activity, qHTS; Potency, µM, inactives show max response, negative = inhibition, most hits filed as inhibitors; 3.5% of 310,000 active; AID 1490, 2009; active = well fitted inhibition curve with a large enough effect; inconclusive = small, poorly fitted or top-dose-only effect, or another doubt; inactive = no such curve, though single readings can be large or run the other way;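 note: the enzyme is Sfp with the accession as filed and its product quenches rhodamine fluorescence; potency is the fitted concentration of half-maximal effect; 0% = enzyme reaction without inhibitor and -100% = no enzyme wells; top concentration of the series not given in the record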
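Step 1, compound plus 15 nM Sfp-PPTase, 15 min, room temperature. Step 2, add rhodamine-CoA (5 uM) and BHQ-2-YbbR (12.5 uM). Step 3, read 525/598 nm fluorescence at 0 and 30 min.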
gsp antagonist: qHTS for Antagonists of gsp, the Etiologic Mutation Responsible for Fibrous Dysplasia/McCune-Albright Syndrome: qHTS; 0.4% of 340,000 active; gsp-mutant cells, cAMP HTRF, 30 min; control for the full effect not named in the record; AID 624288, 2012; Potency, µM (top dose mostly 76.9 µM), for inactives: top-dose activity change, negative = inhibition, usual class: inhibitors; active = falling curve of any shape with a large fitted effect; inconclusive = falling curve, mostly with a smaller effect; inactive = flat or rising curve; cell line not stated here;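 note: intracellular cAMP measured with PDE inhibitor Ro 20-1724 present during compound exposure; potency is the fitted concentration of half-maximal effect; % is set by controls: 0 for no effect and ±100 for the full control effect; nearly all actives have a fitted effect of over 65% in size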
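G418-selected cells were plated in DMEM/10% FBS for 16-24 h at 37C, then treated with compounds plus the PDE inhibitor […] (300 uM solution added) for 30 min at 37C. Intracellular cAMP was measured by HTRF after 30 min lysis at room temperature.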
ClpP mod: qHTS Assay for Activators of ClpP | ATP-dependent Clp protease proteolytic subunit (Bacillus subtilis (strain 168)), P80244 | purified B. subtilis ClpP, FRET peptide cleavage, 20 min | Potency, µM (series often up to 57.5 µM), for the others: top-dose activity change, negative = active | 1.9% of 340,000 active; active = well fitted falling curve with a large enough effect; inconclusive = small, poorly fitted or top-dose-only effect; inactive = no such curve, though single readings can be large or run the other way; note: potency is the fitted concentration of half-maximal effect; the source files actives as falling curves though it sought activators and does not explain the sign; nearly all actives have a fitted effect of over 65% in size; many hits overshoot -100%
Target sequence (P80244 whole entry, looked up): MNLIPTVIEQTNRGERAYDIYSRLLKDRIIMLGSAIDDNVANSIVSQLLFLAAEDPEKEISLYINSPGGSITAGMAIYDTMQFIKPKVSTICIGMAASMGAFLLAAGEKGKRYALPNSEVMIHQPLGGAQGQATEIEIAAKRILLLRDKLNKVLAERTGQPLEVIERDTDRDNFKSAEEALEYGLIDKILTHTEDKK
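Buffer: 100 mM Tris/HCl pH8, 100 mM KCl, 0.05% low protease BSA, 2.5% glycerol, 0.01% Tween-20. ClpP 10 microg/mL final; 20 min RT; delta FRET normalized to ADEP and DMSO controls.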
TRPV1 potentiator: HTS Assay for Compounds that Act as Potentiators of the Vanilloid Receptor 1. Transient receptor potential cation channel subfamily V member 1 (Homo sapiens), Q8NER1. TRPV1-expressing cells, Fluo-8 calcium influx, capsaicin EC20 potentiation; host cell line not named in the record; control for the full effect not named in the record. potentiation, % at 8.33 µM. 0.02% of 320,000 active; active means potentiation above 80%; inconclusive means 30% to 80%; inactive means below 30%; note: 0% is about no effect
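Cells expressing TRPV1 were dye-loaded with Fluo-8 and read kinetically: 10 s baseline, 3 min after compound (agonist portion), then 2 min after EC20 capsaicin (allosteric enhancer portion). Calcium-bound dye fluorescence at 480/520 nm.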
Menin-MLL FL inh: qHTS Assay for Inhibitors Targeting the Menin-MLL Interaction in MLL Related Leukemias: Competition With Fluorescein Labeled MLL-derived Peptide | Fluorescence polarization, fluorescein-MLL peptide displacement from menin | AID 1766, 2009 | 290,000 tested, under 10 active | FP activity change, % at 61.4 µM; inconclusive = falling polarisation curve, or a change in total fluorescence; inactive = total fluorescence flat and polarisation flat or rising; no compound was filed as active; the % refers to the polarisation; negative = inhibition;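 note: % of control where 0% means no effect; inhibitors lower the polarisation; unlabelled MLL peptide was the positive control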
gsp agonist: qHTS for Agonist of gsp, the Etiologic Mutation Responsible for Fibrous Dysplasia/McCune-Albright Syndrome: qHTS; gsp mutant cells, cAMP HTRF, 30 min; control for the full effect not named in the record; 0.13% of 340,000 active; Potency, µM (series often up to 76.9 µM), without a hit: at the top dose activation (cAMP increase), actives largely listed as activators; active = well fitted activation curve with a large enough effect; inconclusive = small, poorly fitted or top-dose-only effect, or another doubt; inactive = no such curve, though single readings can be large or run the other way; cell line not stated here;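 note: phosphodiesterase inhibitor Ro 20-1724 added with compounds to block cAMP breakdown; potency is the fitted concentration of half-maximal effect; nearly all actives have a fitted effect of over 60% in size; about a fifth of the inactives were tested at one dose only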
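Cells stably selected in G418 were plated at 2000/well, grown 16-24 hr, then given compounds in DMSO with the PDE inhibitor […] (300 uM solution added) for 30 min at 37C; cAMP was read by HTRF.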
* marks the source's active call; other numbers are inactive results; ? = inconclusive; . = not tested or not shown; [ ] = dose if it differs, or a comment.

SMILES	D2 PAM	Sfp PPTase inh	gsp antagonist	ClpP mod	TRPV1 potentiator	Menin-MLL FL inh	gsp agonist
CCC1CCCCN1C(=O)COc1ccc(S(=O)(=O)N2CCOCC2)cc1Cl (stereo unspecified)	3	.	-1%	1.7%	-1	.	9%
CCCCC(=O)OCC(=O)Nc1ccc(OC(F)F)cc1	-7	7%	-1%	1.0%	1	0.5	-24%
COc1nc(-c2cnccn2)sc1C	-4	4%	11%	.	-3	0.4	0%
O=[N+]([O-])c1cnc2ccccc2c1	18	19%	6%	0.2%	7	5.5	-21%[15.4 µM]
Cc1ccc(C2=NN(C(=O)CCC(=O)O)C(c3cn(-c4ccccc4)nc3-c3ccc(C)cc3)C2)cc1 (stereo unspecified)	-5	89µM*	-42%	-30%	24	0.6	-95%[inhibitor]
O=C(CN1CCCCCC1)NCc1ccccc1	-7	13%	6%	.	-23	-6.0	-23%
O=C(Nc1ccc(N2CCCC2)c(Cl)c1)c1ccccc1[N+](=O)[O-]	-1	0%	14%	0.2%	-7	-1.1	-2%
Cc1nnc(SCC(=O)N2CCCCCC2)n(N)c1=O	-7	15%	3%	-28%	?	3.1	-7%[15.4 µM]
CC(C)C[C@H](NC(=O)c1nc[nH]c1C(=O)NCc1ccccc1)C(=O)OCc1ccccc1	-16	27%	-16%	-3.6%	13	3.5	.
COc1ccc(CN2CCNC(=O)C2CC(=O)NCc2ccc(C)s2)c(OC)c1 (stereo unspecified)	-2	-11%	2%	-3.5%	13	-6.7	-8%
COc1ccc(/C=C/C(=O)NCC2COc3ccccc3O2)cc1OC (stereo unspecified)	-3	-18%	3%	.	-17	0.4	-14%[15.4 µM]
COc1ccccc1NC(=O)N1CCC(c2nc3ccccc3o2)CC1	-10	12%	3%	-1.7%	-1	-1.0	?
CCOC(=O)Nc1cc2c(c(N)n1)N=C(c1ccccc1)CN2	-10	.	14%	-21%	.	.	?
CCNc1nc(Oc2ccc(C(=O)OCC)cc2)nc(N2CCOCC2)n1	.	-26%	.	.	11	2.3	.
Nn1c(SCc2ccccc2)nnc1-c1ccccn1	-20	1%	12%	1.2%	-2	-0.2	0%
COc1ccc(-n2nnnc2SCC(=O)Nc2cccc(NC(C)=O)c2)cc1OC	-8	-2%	-14%	-0.4%	10	-0.6	-20%
CC(C)NC(=O)c1ccc(CONC(=O)OCc2ccccc2)cc1	-4	.	.	0.9%	.	.	-45%[inhibitor]
Cn1c(C(=O)N[C@@H](C(=O)O)c2ccccc2)cc2cc(F)ccc21	-3	17%	0%	.	?	1.2	22%
Cc1[nH]c2ccccc2c1/C=N/Nc1ccc([N+](=O)[O-])cc1	-17	-12%	1%	-0.1%	-3	?	-6%[15.4 µM]
CCCCN1C(=O)CC(Nc2ccc(CC)cc2)C1=O (stereo unspecified)	-1	10%	7%	-1.1%	7	6.3	-50%[inhibitor]
COCCCN(C(=O)c1cc(-c2ccco2)nc2ccccc12)c1c(N)n(Cc2ccccc2)c(=O)[nH]c1=O	-3	.	1%	?	0	.	9%
COc1ccc(CCNC(=O)CC(NS(=O)(=O)c2ccc(NC(C)=O)cc2)C(C)C)cc1OC (stereo unspecified)	-10	20%	-15%	-17%	.	1.6	-25%
COc1ccc2c(CC(=O)Nc3ccc(OC)c(S(=O)(=O)N4CCOCC4)c3)coc2c1	-14	9%	-23%	1.8%	-1	2.0	-18%
O=C(NCCCN1CCCC1=O)C(=O)NCC1OCCCN1S(=O)(=O)c1ccccc1 (stereo unspecified)	-8	.	.	0.1%	.	.	-176%[inhibitor]
Cc1cc(C)c(NC(=O)CCCN2CCN(C)CC2)c(C)c1	-17	4%	9%	-2.4%	4	-0.9	-14%
O[C@H]1CN(Cc2cccs2)[C@@H](c2ccc(Cl)cc2)C[C@@H]1n1cc(C2CC2)nn1	-2	.	.	-1.1%	.	.	3%
CSc1nc2c(c(=O)[nH]1)C(c1ccccc1)C1=C(CC(C)(C)CC1=O)N2 (stereo unspecified)	-4	19%	-16%	.	-3	-0.9	0%[15.4 µM]
O=C(NNC1=NCCC1)c1cccc(Br)c1	-19	13%	6%	-0.5%	-11	-0.7	2%
Brc1ccc(C=Nc2ccc(Nc3ccccc3)cc2)s1	87*	56µM*	-24%	-1.0%	-5	0.6	?
CC(C)c1[nH]c(=O)c(C#N)c2c1COC(C)(C)C2	-3	-1%	12%	32µM*	10	0.7	10%
COC(=O)Cc1cc(OC)c(OC)cc1Cc1cc(OC)c(OC)cc1CC(=O)OC	-4	22%	-7%	0.5%	5	0.9	-36%
COc1ccc(/C=N/NC(=O)c2ccc(NC(=O)c3cccc([N+](=O)[O-])c3)cc2)c(C(=O)O)c1OC	0	11%	6%	1.7%	3	-1.6	6%[15.4 µM]
Cc1ccccc1-n1ncc(C(C)NS(=O)(=O)c2sccc2C)c1C (stereo unspecified)	15	-1%	6%	-2.3%	7	1.3	-17%
O=C(NN=Cc1ccc(F)c(F)c1)c1ccc(NS(=O)(=O)c2cccs2)cc1	-3	.	-22%	-2.1%	.	.	-35%[inhibitor]
CCOC(=O)c1ccccc1NC(=S)N1CCN(C2CCCCC2)CC1	-8	-2%	-3%	-2.3%	-16	0.6	20%
CCOC(=O)c1sc(S(C)(=O)=O)c2c1CC(C)(C)C/C2=N/O	-2	13%	-11%	1.4%	-13	1.3	-14%
OCCNc1ncnc2c1ncn2Cc1ccccc1	-10	0%	2%	-0.3%	-1	0.5	4%
CCOC(=O)C1CCN(S(=O)(=O)c2cccc(C(=O)Nc3ccccc3)c2)CC1	-2	5%	-15%	5.2%	-12	.	-6%
COc1ccc(CNS(=O)(=O)c2ccc(F)c(C(=O)Nc3ccc(OC)cc3)c2)cc1	-5	8%	6%	17%	-2	-3.3	?
Cc1ccc(C(=O)NC(=S)Nc2ccccc2C(F)(F)F)c(C)c1	-10	6%	-22%	-2.3%	-5	5.1	-1%
CCOC(=O)/C(O)=C(\C#N)c1nc2ccccc2[nH]1	3	20%	0%	.	1	7.5	-2%
O=C(NCCc1c[nH]c2ccccc12)N[C@@H](Cc1ccccc1)C(=O)O	-2	18%	2%	.	9	-1.7	-3%
O=C(NN1C(=O)/C(=C/c2ccc(O)cc2)SC1=S)c1ccccc1O	0	-7%	?	-2.0%	11	?	-59%[inhibitor]
CC(C)CCN1CCN(Cc2cccn2-c2cccnc2)CC1CCO (stereo unspecified)	-16	10%	2%	-0.1%	4	-3.2	-21%
COc1ccc(CCC(=O)OCC(=O)Nc2sccc2C#N)cc1	-4	.	3%	.	.	.	26%
O=Cc1ccsc1B(O)O	.	16%	.	-1.2%	.	0.8	.
O=C(Nc1ccccc1NS(=O)(=O)c1ccc(F)cc1)C1CCC1	-3	15%	-7%	.	3	-3.5	-22%
COc1ccc(NC(=O)c2c(C)noc2-c2snnc2C)cc1	0	5%	-1%	.	-14	3.0	12%
COc1ccc(NS(=O)(=O)c2ccc(O)c(NC(=O)c3ccc(S(=O)(=O)N4CCCC4)cc3)c2)cc1	-1	13%	-5%	-0.8%	1	1.7	-15%
CCOC(CNC(=O)c1cc2c(=O)n(CC)c3ccccc3c2s1)OCC	-8	4%	-18%	3.6%	-4	-8.3	-8%

Further compounds:
SMILES	D2 PAM	Sfp PPTase inh	gsp antagonist	ClpP mod	TRPV1 potentiator	Menin-MLL FL inh	gsp agonist
Cc1nc(-c2ccccc2)sc1C(=O)/C=C/c1ccc(Cl)cc1	-1	-16%	3%	-0.9%	0	1.4	-3%
C/C=C(\NC(C)=O)c1ccccc1	-4	.	7%	-2.2%	-4	.	0%
O=C(O)CC(C(=O)NCc1ccccc1)C1CCCO1 (stereo unspecified)	1	1%	7%	0.4%	1	3.3	4%[15.4 µM]
Cc1cccc(CCNCc2c(C(=O)O)c(C)n(-c3ccccc3)c2C)c1	-8	-7%	-1%	-2.0%	20	18	1%

11 compounds from above, arranged by formula weight, low to high:
SMILES	D2 PAM	Sfp PPTase inh	gsp antagonist	ClpP mod	TRPV1 potentiator	Menin-MLL FL inh	gsp agonist
O=[N+]([O-])c1cnc2ccccc2c1	18	19%	6%	0.2%	7	5.5	-21%[15.4 µM]
COc1nc(-c2cnccn2)sc1C	-4	4%	11%	.	-3	0.4	0%
CCCCN1C(=O)CC(Nc2ccc(CC)cc2)C1=O (stereo unspecified)	-1	10%	7%	-1.1%	7	6.3	-50%[inhibitor]
O=C(NNC1=NCCC1)c1cccc(Br)c1	-19	13%	6%	-0.5%	-11	-0.7	2%
Nn1c(SCc2ccccc2)nnc1-c1ccccn1	-20	1%	12%	1.2%	-2	-0.2	0%
Cc1cc(C)c(NC(=O)CCCN2CCN(C)CC2)c(C)c1	-17	4%	9%	-2.4%	4	-0.9	-14%
CCOC(=O)c1sc(S(C)(=O)=O)c2c1CC(C)(C)C/C2=N/O	-2	13%	-11%	1.4%	-13	1.3	-14%
CC(C)CCN1CCN(Cc2cccn2-c2cccnc2)CC1CCO (stereo unspecified)	-16	10%	2%	-0.1%	4	-3.2	-21%
CCOC(=O)c1ccccc1NC(=S)N1CCN(C2CCCCC2)CC1	-8	-2%	-3%	-2.3%	-16	0.6	20%
COC(=O)Cc1cc(OC)c(OC)cc1Cc1cc(OC)c(OC)cc1CC(=O)OC	-4	22%	-7%	0.5%	5	0.9	-36%
COc1ccc(CCNC(=O)CC(NS(=O)(=O)c2ccc(NC(C)=O)cc2)C(C)C)cc1OC (stereo unspecified)	-10	20%	-15%	-17%	.	1.6	-25%
